NPYLR7 ag: activates Aedes aegypti NPYLR7 receptor; HEK293T NPYLR7/Galpha15, GCaMP6s calcium fluorescence; activation, % at 10 µM; actives 0.15% (n = 270,000); AID 1259423; in the data active = activation above about 40%;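 note: 0% = vehicle and 100% = reference agonist at the receptor; some compounds past the cut are filed as inactive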
NPYLR7 ag max-min: second read-out of NPYLR7 ag, no call of its own (marks repeat the call); activation, %; measured here: Max-Min RFU normalised activation; some inactives read as strong as hits;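 span of the calcium signal over five minutes; 0% = vehicle and 100% = native peptide agonist; compound fluorescence can raise it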
* hit, by the source's call; & = joins results of further samples. The list is partial (hit frequency here may not be typical).

Second line of a record: NPYLR7 ag | NPYLR7 ag max-min
1: COc1cc(C)ccc1C(=O)C=Cc1ccc(OC)c(OC)c1OC
→ 2.5 | 3.7
2: c1ccc(OCc2nnc3sc(-c4ccc5c(c4)OCO5)nn23)cc1
→ 8.8 | 0.5
3: O=C([C@H]1CCCN1C(=O)c1ccccc1)N1CCN(Cc2ccc(Oc3ccccc3)cc2)CC1
→ 0.7 | 3.3
4: CCC(C)CNC(=O)CN1CN(c2ccccc2)C2(CCN(C(=O)Nc3cccc(Cl)c3Cl)CC2)C1=O (centres undefined)
→ 16.8 | 26.4
5: O=C(CCN1C(=O)NC2(CCCC2)C1=O)Nc1ccc2c(c1)OCCO2
→ 5.7 | 11.2
6: Cc1ccc(Cc2nc(N3CCCN(C(=O)CSc4ccccc4)CC3)c3c(-c4cccnc4)noc3n2)cc1
→ 13.9 | 5.2
7: CCCCc1cnc2c(c1SCC(=O)Nc1c(C)cc(C)cc1C)c(=O)n(C)c(=O)n2C
→ 3.2 | 9.4
8: COC(=O)c1ccc(OCC(=O)c2ccc3c(c2)OCCO3)cc1
→ 1.1 | 1.0
9: Clc1ccc(Nc2nnc(Cc3ccncc3)c3ccccc23)cc1
→ -5.9 | -11.2
10: COc1ccc(C(CC(=O)NC2CCN(Cc3ccccc3)CC2)c2c[nH]c3ccccc23)c(OC)c1 (centres undefined)
→ 3.6 | 15.5

(further entries)
Second line of a record: NPYLR7 ag | NPYLR7 ag max-min
11: CCC(Sc1ncc(S(=O)(=O)c2ccc(Cl)cc2)c(=O)[nH]1)C(=O)Nc1ccc(C)cc1 (centres undefined)
→ -0.8 | 1.2
12: O=C(CSCCC12CC3CC(CC(C3)C1)C2)Nc1ccccc1Cl
→ -1.5 | 1.2
13: COc1ccc(S(=O)(=O)N(CC(=O)N(Cc2ccccc2)Cc2cccn2Cc2cccc(OC)c2)CC(C)C)cc1
→ -8.7 | -14.4
14: CN(C)S(=O)(=O)c1ccc2c(c1)oc(=O)n2C
→ 3.7 | 1.9
15: COc1nc(-c2ccccc2C)n(-c2ccc(NC(=O)c3ccc(C(F)(F)F)cc3)cc2)n1
→ 14.7 | 12.5
16: Cc1nccn1CC(=O)Nc1ccc2c(c1)OC(F)(F)O2
→ 3.4 | 2.4
17: FC(F)(F)c1cccc2c(-c3cccc4c3CCNC4)ccnc12
→ 3.0 | -1.5
18: CCS(=O)(=O)N1CC(C)(C)C1c1ccccc1 (centres undefined)
→ 5.9 | 2.3
19: C=CCn1c(C)nnc1SC(C)C(=O)NC(=O)NCC (centres undefined)
→ 3.7 | 3.9
20: Cc1cc(C2CCC2)nc(NCC(C)(C)N2CCOCC2)n1
→ -3.2 | -4.2

Next section:
Second line of a record: NPYLR7 ag | NPYLR7 ag max-min
21: COc1ccc2oc(=O)c(-c3csc(Nc4ccccc4OC)n3)cc2c1
→ -4.2&2.9 | -9.1&6.6
22: COCCN(CCC(=O)NC1CC1)c1nc(Cc2cccc(OC)c2)ns1
→ -2.0 | 10.0
23: CC1(C(=O)NS(=O)(=O)c2ccc(C#N)cc2)CCN1C(=O)Cc1ccccc1Cl (centres undefined)
→ 8.9 | 3.5
24: COCc1cc(C)nc(N/N=C\c2ccccc2OCc2cccc3ccccc23)c1C#N
→ 13.3 | 10.7
25: Cc1cc(=O)[nH]c(NCCn2cnc(-c3ccccc3)c2-c2ccc(C)o2)n1
→ -5.4 | -5.5
26: O=C(c1ccc[nH]c1=O)N1CCC2(CCCO2)CC1
→ 4.4 | 4.0
27: Cc1nc2ccc(NC(=O)c3c(-c4ccccc4Cl)noc3C)cc2s1
→ -19.3 | -27.9
28: O=C(Nc1nnc(C23CC4CC(CC(C4)C2)C3)s1)c1cccs1
→ -2.7 | -8.1
29: COCCN1CC(C(=O)NCCc2ccc(C)o2)CCC1=O (centres undefined)
→ 10.6 | 6.5
30: O=C(N[C@@H]1CCCCC1NC(=O)C1CCN(C(=O)Cc2ccccc2)CC1)c1ccc(F)cc1 (some centres undefined)
→ 7.0 | 17.5

Next section:
Second line of a record: NPYLR7 ag | NPYLR7 ag max-min
31: CCc1cc(N2CCN(C(C)=O)CC2)nc(SCc2ccc(C(=O)NCc3ccccn3)o2)n1
→ -3.8 | -2.3
32: CC(C)c1ccccc1NC(=O)c1cccnc1Oc1cccc([N+](=O)[O-])c1
→ -5.9 | -13.6
33: CCOC(=O)[C@H]1[C@@H](O)C(=O)N(C(C)C)C12CCN(C(=O)OCC(C)(C)C)CC2
→ 8.1 | 21.9
34: CCn1c(SCC(=O)N2CCc3ccccc32)nnc1-c1ccncc1
→ -7.6 | -9.6
35: CCCOc1ccc(Oc2nc(N(C)C)nc(N(C)C)n2)nn1
→ 4.1 | -0.2
36: COc1ccc(C(N)=O)c(OC(C)C(=O)N2CCc3ccccc32)c1 (centres undefined)
→ 17.8&1.2 | 6.8&0.7
37: O=C1CC(c2nc3ccccc3n2CCOc2ccccc2)CN1c1ccccc1 (centres undefined)
→ -0.5 | -3.6
38: COc1ccc2nc(-c3ccc(C)c(NC(=O)Cc4ccc(Cl)cc4)c3)cn2n1
→ -6.2 | -10.6
39: Cc1cc(O)c(CN2CCN(CCO)CC2)c2c1C(=O)/C(=C/c1cccc(Br)c1)O2
→ 24.8 | 25.6
40: CCCCn1c(=O)c2c(nc3n2CCN3c2ccc(OC)cc2)n(C)c1=O
→ -20.1 | -18.9

Carrying on:
Second line of a record: NPYLR7 ag | NPYLR7 ag max-min
41: CCOC(=O)c1cccnc1Oc1cccc(NC(=O)c2cc(C)n(C)n2)c1
→ -4.7 | -9.5
42: COCCCNC(=O)Cc1nc(-c2ccncc2)n[nH]1
→ 1.9 | 2.7
43: COc1ccc(C(=O)C2CCCN(C(=O)c3n[nH]c4ccccc34)C2)cc1OC (centres undefined)
→ 4.5 | 4.8
44: COc1cc2c(cc1-c1nccn1Cc1cc(C(C)C)no1)CCC2
→ 4.7 | 1.9
45: CN(C)S(=O)(=O)N1CCC(Oc2ccc(C(=O)N3CCN(CC4CC4)CC3)cc2)CC1
→ 5.2 | 1.6
46: O=C(CC1CSc2nccc(=O)n21)Nc1ccc(Nc2ccccc2)cc1 (centres undefined)
→ 0.1 | -1.1
47: CCOc1ccc(NC(=O)N2CCN(c3nc(C(C)C)nc4sc(C)c(C)c34)CC2)cc1
→ 14.8 | 16.0
48: CC(C)(C)c1cc(=O)n(-c2cccc(Cl)c2)[nH]1
→ 24.8 | 14.7
49: O=C(OC1CCOC1=O)c1cc2c(ccc3ccccc32)[nH]1 (centres undefined)
→ -8.0 | -9.3
50: CC(C)c1nnc(NC(=O)c2cccc(OC(F)F)c2)s1
→ -2.5 | -5.0

Later entries:
Second line of a record: NPYLR7 ag | NPYLR7 ag max-min
51: CO[C@H]1CN(C(=O)c2c(C)noc2C)[C@@H]2CC[C@@H](O)[C@@H]1C2
→ 31.5 | 33.8
52: COc1cc2c(cc1CNCc1cccnc1Oc1ccc(C)nc1)CCC2
→ 11.9 | 8.1
53: Cc1noc(C)c1NC(=O)c1cccc(CN2CCC3(CC2)CNC(=O)O3)c1
→ 2.9 | -0.2
54: Cc1cccc(Nc2ncccc2C(=O)NCCCN(C)c2ccccc2)c1C
→ -4.7 | -3.1
55: CS(=O)(=O)c1ccc(-c2nccn2CCn2ccnc2)cc1
→ -1.8 | -3.7
56: CC(C)(C)C(=O)NC(=S)Nc1sc2c(c1C(N)=O)CCCC2
→ 5.0 | 7.8
57: Cc1ccc(Cc2nc(N3CCN(C(=O)Cc4ccccc4)CC3)c3c(-c4ccc5ccccc5c4)noc3n2)cc1
→ 18.5 | 21.4
58: COc1cccc(-n2c(SC(C)C(N)=O)nc3sc4c(c3c2=O)CCCCC4)c1 (centres undefined)
→ 2.1 | 1.1
59: Cc1ccc(Cn2nnc3c(=O)n(CC(=O)N4CCOCC4)cnc32)cc1
→ 7.4 | 7.9
60: O=c1/c(=C/c2cccnc2)sc2nc(-c3ccc(Cl)cc3Cl)nn12
→ -9.8 | -16.7

Next section:
Second line of a record: NPYLR7 ag | NPYLR7 ag max-min
61: Cc1cc(NCCC(C)C)n2c(nc3ccccc32)c1C#N
→ 5.6 | 2.9
62: O=C1c2ccccc2C(=O)N1CCCCN(C(=O)c1ccc(Br)cc1)c1ccc(Cl)cc1
→ 9.9 | 3.8
63: CC(C)N1CCCC(Cn2cc(Oc3ccccc3)c(=O)c(C(=O)O)c2)C1 (centres undefined)
→ -3.1 | -6.4
64: CCc1nc(N2CCN(S(=O)(=O)c3ccc(OC)cc3)CC2)c2c3c(sc2n1)CCCC3
→ -11.3 | -6.7
65: CN1C(=O)C(=C2C=C(c3ccccc3)N(Cc3ccco3)C3=C2CCCC3)C(=O)N(C)C1=O
→ -5.0 | -9.4
66: COC(=O)C1CCCCN1C(=O)CCc1nnc(CCc2c[nH]c3ccccc23)o1 (centres undefined)
→ -0.9 | 0.6
67: CC(C)N(CCNC(=O)NCc1ccc(F)cc1)C(C)C
→ 0.6 | -6.4
68: COc1cccc(CNC(=O)c2nn(C)c(=O)c3ccccc23)c1
→ 5.9 | 1.1
69: CCN(CC)S(=O)(=O)c1ccc2c(c1)nc(SCc1cc(OC)cc(OC)c1)n2Cc1ccco1
→ 5.4 | 1.0
70: Cc1cc(C)cc(CCC(=O)NC(C)c2n[nH]c(C)n2)c1 (centres undefined)
→ 4.7 | 1.2

(list continues)
Second line of a record: NPYLR7 ag | NPYLR7 ag max-min
71: Cc1ccc2c(c1)N(Cc1ccc(Cl)s1)C(=O)C(C)O2 (centres undefined)
→ 0.0 | -3.1
72: CC(C)(C)C(=O)Cn1c[n+](N)cn1
→ -16.7 | -24.3
73: Clc1ccccc1Cn1ncc2c(N3CCN(CCOc4cccc5ccccc45)CC3)ncnc21
→ 5.8 | 11.5
74: CC(C)(C)c1[nH]cnc1/C=c1\[nH]c(=O)/c(=C/c2ccccc2)[nH]c1=O
→ -6.5 | -10.4
75: Cc1c(C)n(CC(O)Cn2nnc3ccccc32)c2c(Cl)cccc12 (centres undefined)
→ -0.6 | 4.5
76: O=C(CNC(=O)/C=C/c1ccco1)N=Nc1c(O)n(CCc2ccccc2)c2ccccc12
→ 2.1 | -6.3
77: CNc1nc2cnc(Nc3cc(OC)cc(C(F)(F)F)c3)cc2n1-c1ccccc1
→ -6.8 | -9.8
78: CN1C(=O)CC(C(=O)Nc2cccc(Cl)c2)SC1=Nc1ccc(F)cc1 (centres undefined)
→ 0.2 | -1.2
79: CCC(=O)N1CCCC1(C)C(=O)Nc1cccc(F)c1 (centres undefined)
→ 4.4 | 1.5
80: CC1CCN(C(=O)Cn2cc(S(=O)(=O)CC(=O)Nc3ccc(C(N)=O)cc3)c3ccccc32)CC1
→ -5.2 | -10.5

(list continues)
Second line of a record: NPYLR7 ag | NPYLR7 ag max-min
81: C[C@@H](Oc1cc(-c2cnn(C3CCNCC3)c2)cnc1N)c1c(Cl)ccc(F)c1Cl
→ -8.1 | -16.1
82: Cc1nnc(SCc2ccc(C(=O)c3ccc(F)cc3)cc2)[nH]c1=O
→ -2.8 | -5.5
83: COc1cccc(C(=O)Nc2ccc(-n3nc(OCC(C)C)nc3-c3ccccc3F)cc2)c1
→ 12.6 | 16.7
84: CCOC(=O)C1=C(C)N=c2s/c(=C\c3ccc(OC)c(OC)c3)c(=O)n2C1c1ccc(OC)c(OC)c1 (centres undefined)
→ 10.1 | 11.8
85: CN(Cc1ccccc1Cl)Cn1nc2n(C)c(=O)c3ccccc3n2c1=S
→ 6.4 | 10.1
86: O=C(CC1C(=O)NCCN1Cc1cccc(F)c1F)NCCc1ccccc1 (centres undefined)
→ 7.7 | 4.6
87: CN(CCn1ccc2ccccc21)C(=O)c1onc2ccccc12
→ 9.8 | 1.5
88: Cc1ccc(C(=O)N2CCCCCC2)cc1S(N)(=O)=O
→ -23.3 | -23.9
89: CCC1CN(C(=O)c2ccc3cc[nH]c3c2)CCC(=O)N1Cc1ccccc1 (centres undefined)
→ 9.4 | 6.1
90: COc1ccc(N2CCN(C(=O)C3CCCCC3C(=O)N3CCc4ccccc4C3)CC2)cc1 (centres undefined)
→ -9.5 | -16.8
91: CC1(C)CC(=O)C2=C(C1)OC(=N)C(C#N)C2c1cn(-c2ccccc2)nc1-c1ccccc1 (centres undefined)
→ -1.2 | -5.9
